GLA inh pH 4.5 – alpha-galactosidase A (human) inhibition, pH 4.5; activity change, negative = inhibition, % at 105 µM; P06280; purified enzyme, 4-MU-alpha-Gal fluorescence, pH 4.5; AID 1467; 230,000 tested, under 10 active; inconclusive = small, poorly fitted or top-dose-only inhibition, or a rising curve; inactive = flat fitted curve, though single readings scatter; no compound was filed as active;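 note: 0% = full activity with enzyme and -100% = basal without enzyme; dose as in the result columns while the protocol names 77 µM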
Rango release inh – prevents RanGTP from dissociating the Rango-importin beta complex | AID 540253 | Potency, µM (series often up to 46.1 µM), for the others: at the top dose activity change, negative = inhibition | actives 0.071% (n = 340,000) | O95149+P62826 | Biochemical FRET Rango-importin beta, RanGTP-induced dissociation; active means falling FRET ratio curve, often poorly fitted, with flat reads before Ran was added; inconclusive means other falling curves, or compound fluorescence or quenching; inactive means flat or rising ratio curve;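 note: potency is the fitted concentration of half-maximal effect; % of control where 0% means no effect; nearly all actives have a fitted effect of over 45% in size; -100% = wells without RanGTP and RCC1; the record marks most hits as doubtful in a second field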
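Rango/importin beta premix (0.1/0.25 uM final), PBS + 1 mM DTT + 0.02% Tween-20 + 0.1% BSA; cpd 5 min RT; FRET pre-read; + RanGTP-RCC1 (0.6 uM Ran, 2 mM GTP, 0.2 uM RCC1); 45 min RT; FRET post-read, ex 430, em 486/530 nm.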
Rango-impB inh – prevents formation of the Rango-importin beta complex; Q14974; Rango CFP/YFP FRET sensor + importin beta, 45 min; Potency, µM (series often up to 92.2 µM), for inactives: at the highest dose inhibition of complex formation; actives 0.031% (n = 340,000); AID 540263; active = rising FRET ratio curve, often small or poorly fitted; inconclusive = mostly compound fluorescence or quenching in the first reads; inactive = flat curves in all reads;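 note: potency is the fitted concentration of half-maximal effect; 0% = DMSO wells and 100% = buffer wells lacking importin beta; nearly all actives have a fitted effect of over 15% in size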
Target sequence (Q14974 whole entry, looked up): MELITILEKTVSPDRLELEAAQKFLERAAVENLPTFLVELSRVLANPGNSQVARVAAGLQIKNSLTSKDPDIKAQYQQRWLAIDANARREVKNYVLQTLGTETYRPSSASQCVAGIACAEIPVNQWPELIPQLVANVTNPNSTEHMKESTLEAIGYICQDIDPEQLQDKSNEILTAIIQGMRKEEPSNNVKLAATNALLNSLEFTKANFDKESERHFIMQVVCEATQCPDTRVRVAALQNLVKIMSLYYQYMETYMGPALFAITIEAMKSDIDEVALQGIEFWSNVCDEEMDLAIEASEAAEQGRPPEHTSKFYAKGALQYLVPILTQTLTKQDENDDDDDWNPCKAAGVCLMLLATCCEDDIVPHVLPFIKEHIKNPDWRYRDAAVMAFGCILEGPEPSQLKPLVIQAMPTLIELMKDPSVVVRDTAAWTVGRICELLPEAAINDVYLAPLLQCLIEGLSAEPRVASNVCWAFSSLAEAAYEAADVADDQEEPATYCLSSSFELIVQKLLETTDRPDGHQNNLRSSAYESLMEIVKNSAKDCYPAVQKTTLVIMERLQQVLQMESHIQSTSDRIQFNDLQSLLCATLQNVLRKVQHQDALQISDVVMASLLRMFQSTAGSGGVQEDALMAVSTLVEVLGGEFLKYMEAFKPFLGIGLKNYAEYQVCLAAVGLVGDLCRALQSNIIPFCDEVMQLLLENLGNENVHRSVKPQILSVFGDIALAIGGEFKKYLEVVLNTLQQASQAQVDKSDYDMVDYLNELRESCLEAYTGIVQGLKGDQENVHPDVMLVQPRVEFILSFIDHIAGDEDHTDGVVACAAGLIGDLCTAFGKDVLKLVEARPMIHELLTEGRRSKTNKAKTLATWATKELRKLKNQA
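FRET biosensor (snurportin 1 IBB flanked by EYFP and cerulean), 50 nM, with compound 5 min, then 0.125 microM importin beta in PBS, 1 mM DTT, 0.02% Tween-20, 0.1% BSA. CFP/YFP ratio read after 45 min at room temperature; pre-read flags interference.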
miR-21 reporter – raises the signal of a miR-21 reporter; 340,000 tested, under 10 active; Potency, µM (top dose mostly 38.3 µM), for inactives: at the highest dose reporter change, positive = more light; HeLa miR-21 FLuc reporter, luciferase, 48 h; active = well fitted rising curve with a large enough effect; inconclusive = small, poorly fitted or top-dose-only effect; inactive = no such curve, though single readings can be large or run the other way;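 note: % of control where 0% means no effect; miR-21 action dims this reporter so a rising signal means less miR-21 action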
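Compounds were titrated across several concentrations (up to approximately 40 uM) and incubated 48 hours with HeLa miR-21-FLuc reporter cells (miR-21 target sequence downstream of FLuc, endogenous miR-21). Readout was firefly luciferase luminescence after lytic detection reagent.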
Active calls of the source: *; ? = inconclusive; . = no result given.

SMILES | GLA inh pH 4.5 | Rango release inh | Rango-impB inh | miR-21 reporter
Cc1cc(C)c(NC(=O)CNC(=O)c2cc([N+](=O)[O-])ccc2N2CCOCC2)c(C)c1 | . | -1% | 2.8% | .
Clc1ccc(CCNc2ncnc3nc[nH]c23)cc1 | . | -2% | -0.5% | 8%
N#CCCN(C(=O)COc1ccc(Cl)cc1Cl)c1ccccc1 | -1 | 13% | 0.8% | -9%
O=C1N=C(N2CCc3ccccc3C2)S/C1=C\c1ccc(O)cc1 | -5 | ? | ? | -35%
Nc1sc(-c2ccccc2)c(Cc2ccccc2)c1C(=O)O | 7 | -5% | -1.9% | 5%
O=C(CC1SC2=NCCN2C1=O)Nc1ccc(Cl)cc1 (stereo not given) | -2 | -17% | -3.7% | 1%
CCN(C(=O)c1ccc2c(Cl)c3c(nc2c1)CCC3)c1ccc(C)c(C)c1 | -6 | -14% | -2.6% | 13%
COc1cc2cc(C)c3nnc(SCC(N)=O)n3c2cc1OC | 1 | . | . | -17%
Cc1cccc(NC(=O)CSCC(=O)N2CCN(c3cccc(C(F)(F)F)c3)CC2)c1 | . | 9% | -0.2% | .
CCOC(=O)c1[nH]c2cc3c(cc2c1CCCN1C(=O)c2ccccc2C1=O)OCCO3 | 6 | 0% | 2.2% | -8%
Cc1ccc(S(=O)(=O)Nc2nc3ccccc3nc2NCC2CCCO2)c(C)c1 (stereo not given) | 2 | 14% | -3.4% | -1%
CCCSc1nc2c(cnn2-c2ccc(C)cc2)c(=O)[nH]1 | 5 | 1% | -0.5% | -14%
COc1ccccc1CC1CC(=O)N(c2cccc(Cl)c2C)C1=O (stereo not given) | . | -14% | 0.1% | 1%
COc1ccc(CC(=O)OCC(=O)Nc2ccc(C(=O)Nc3ccc(OC)cc3)cc2)cc1 | 5 | -4% | -3.5% | -11%
C#Cc1ccc([C@H]2C=C(C(=O)N3CCN(Cc4ccccc4)CC3)O[C@@H](OCC)[C@@H]2CCCO)cc1 | 0 | 3% | 1.1% | 10%
Cc1cccc(NC(=O)C2COc3ccccc3O2)c1 (stereo not given) | . | -3% | -7.1% | -54%
CC(=O)N1CCN(c2ccc(NC(=O)c3ccco3)cc2Cl)CC1 | . | -3% | 1.0% | -44%
COc1ccc(CNS(=O)(=O)c2cc(-c3cc(C)no3)ccc2OC)cc1OC | . | -1% | 0.1% | -4%
O=C(CN1N=C(c2ccccc2)CCC1=O)NCCCN1CCc2ccccc2C1 | 8 | -9% | 0.9% | -4%
Cc1cccc(NS(=O)(=O)Cc2ccccc2)n1 | -5 | -8% | -1.9% | -14%
CCN1CCN(CCn2c(=S)[nH]c3ccccc3c2=O)CC1 | -4 | 3% | 0.2% | 0%
O=C(O)Cn1cc(/C=C2/NC(=O)N(c3ccc(Cl)cc3)C2=O)c2ccccc21 | -13 | 10µM* | ? | 12%
CCOC(=O)N1CCN(c2nc(-c3ccccc3)c3ccccc3n2)CC1 | . | ? | ? | 2%
COC(=O)C1CCN(Cc2cc(=O)oc3cc(OC)ccc23)CC1 | 3 | -11% | -0.8% | -20%
Cc1ccc(-c2noc(-c3cccs3)n2)cc1 | 4 | 5% | -2.1% | -34%

Further results.
SMILES | GLA inh pH 4.5 | Rango release inh | Rango-impB inh | miR-21 reporter
CCOc1cc(NC(=S)NCC2CCCO2)c(OCC)cc1NC(=O)c1ccccc1F (stereo not given) | -7 | 0% | -2.8% | 4%
COc1ccc(Cc2nnc(CCc3ccccc3)s2)cc1 | . | -14% | -2.5% | -15%
Cc1cnc(NC(=O)CSc2nnc(Cc3ccccc3)n2C)s1 | -6 | 18% | 2.9% | 3%
COc1cc(C(=O)OCC(=O)NC2CCCC2)cc(NC(=O)c2ccco2)c1OC | -6 | 6% | 11% | -5%
CCc1ccccc1NC(=O)CN(C)C(=O)CSc1nnc(Nc2cccc(C)c2C)s1 | -2 | 4% | 3.9% | 10%
CCOC(=O)C1(C(F)(F)F)N=C(N(C)C)OC(N(C)C)=N1 | 0 | 0% | 3.6% | -4%
Cc1noc(C)c1NC(=O)NC(c1ccccc1)c1ccccc1 | -7 | -3% | -1.2% | -2%
C=CCNC(=S)NCc1ccccc1 | 2 | 0% | -0.2% | 2%
COc1cc(C(=O)OCC(=O)c2ccccc2)cc2c1OCCO2 | . | -7% | 1.6% | .
CCN(CC(=O)Nc1ccc(NC(C)=O)cc1)C(=O)c1cccc(-n2cccc2)c1 | . | 17% | 7.8% | .
O=C(Nc1ccccc1F)c1cc(S(=O)(=O)N2CCOCC2)ccc1N1CCOCC1 | . | -4% | -2.5% | .
O=c1[nH]c(Nc2ccccc2Cl)cc2ccccc12 | . | -26% | ? | .
Cc1cc(CC(=O)O)c(C)cc1CC(=O)O | 3 | 9% | -1.2% | 0%
COc1ccc(-n2nc3cc(C)c(N)cc3n2)cc1Cl | . | ? | ? | -54%
COc1ccc(C(=O)CC(c2ccccc2)C2CCCCC2=O)cc1 (stereo not given) | 5 | -11% | -0.4% | -3%
CN(CC(=O)Nc1ccc(Cl)cc1)C(=O)c1ccc(COc2ccccc2)cc1 | . | -3% | ? | .
COc1ccccc1NC(=O)c1ccc(-n2cncn2)nc1 | -5 | -10% | 3.9% | -1%
Cc1cc(C(=O)NNC(=O)COc2ccccc2Cl)n[nH]1 | . | -9% | -0.5% | 1%
COc1ccc2cc3c(N)nn(C(=O)c4ccccc4Cl)c3nc2c1 | -5 | -3% | 4.5% | ?
COCCN(C(=O)CSc1nnc(-c2ccccc2C)n1C)c1c(N)n(Cc2ccccc2)c(=O)[nH]c1=O | 8 | 7% | -3.6% | 3%
CC(=O)Nc1ccc(NC(=O)C/C(C)=N/NC(=O)COc2cc(C)c(Br)cc2Br)cc1 | . | 12% | 3.5% | 0%
Cc1cc(C)cc(N2CC(O)Cn3c2nc2c3c(=O)[nH]c(=O)n2C)c1 (stereo not given) | . | 26% | 0.2% | 1%
O=C(Nc1nc2c(F)cc(F)cc2s1)C1CCN(C(=O)c2ccc(F)cc2)CC1 | . | -22% | 0.2% | .
Cc1ccc(-c2nnc(CSc3nnc(C)s3)o2)cc1 | 15 | ? | -2.4% | -47%
COc1ccccc1NC(=O)c1ccccc1SC | -2 | 10% | 1.3% | -7%

Continuation.
SMILES | GLA inh pH 4.5 | Rango release inh | Rango-impB inh | miR-21 reporter
CCc1nnc(NS(=O)(=O)c2ccc(N/C=C\C(=O)c3ccc4ccccc4c3)cc2)s1 | -6 | ? | ? | -34%
COc1ccc(N(C(=O)CCl)C(C(=O)NC2CCCCC2)c2cccnc2)cc1 (stereo not given) | 4 | -11% | 5.6% | ?
COC(=O)c1cc(S(=O)(=O)N2CCN(Cc3ccccc3)CC2)c[nH]1 | . | 17% | 2.7% | 9%
Cc1ccc(NC(=O)c2sccc2C)cc1[N+](=O)[O-] | -9 | 4% | -0.4% | -62%
CC(=O)N1c2ccc(S(=O)(=O)N3CCC(C(=O)NCCc4ccc(Cl)cc4)CC3)cc2CC1C (stereo not given) | . | -3% | 0.0% | 29%
Cc1ccc(S(=O)(=O)CCSC(=N)N)cc1 | -2 | 0% | -0.5% | 23%
N#Cc1nc(-c2ccc(OCc3ccccc3Cl)cc2)oc1NCCCn1ccnc1 | -3 | . | . | -26%
O=C(CSc1ncn[nH]1)NC1CCCc2ccccc21 (stereo not given) | -1 | -4% | ? | 2%
C=CCn1c(C)cc(C(=O)COC(=O)COc2ccccc2C#N)c1C | 2 | 2% | -1.3% | -1%
Cc1ccnc(NC2c3ccccc3C(=O)N2Cc2ccccc2Cl)c1 (stereo not given) | 5 | 1% | -0.1% | -11%
COc1ccc(NC(=O)Nc2ccc3c(c2)N(C)C(=O)CS3)cc1Cl | 1 | 2% | -1.8% | 20%
C/C(=N\NC(=S)NCc1ccccc1)c1ccc(C(C)(C)C)cc1 | -4 | 0% | -1.7% | 0%
CCN(CC)c1ccc(/C=N/NC(=O)OC)c(O)c1 | -19 | ? | ? | -48%
O=C(Nc1ccccc1N1CCCC1)C1CCN(S(=O)(=O)c2ccccc2)CC1 | . | -11% | -1.5% | .
Cc1noc(C)c1NC(=O)N(C)C[C@H]1Oc2ccc(NC(=O)Nc3ccc4c(c3)OCO4)cc2C(=O)N([C@H](C)CO)C[C@@H]1C | . | -7% | -0.9% | .
O=C(c1ccco1)N1CCN(C(=O)c2snc3ccc(Cl)cc23)CC1 | 4 | 0% | -3.5% | -1%
N/C(CC(=O)Nc1ccc(F)cc1F)=N\OC(=O)c1cccs1 | -3 | 17% | -0.4% | -8%
CCOC(=O)C1CCN(C(=O)c2ccc(OCC)c(OCC)c2)CC1 | 2 | 4% | -2.1% | 0%
CCN1C(=O)c2ccccc2S(=O)(=O)c2ccc(C(=O)NCc3cccnc3)cc21 | 5 | 12% | 0.9% | -10%
CCC(C)NCCCOc1cc(Cl)ccc1Cl (stereo not given) | 7 | 1% | 0.8% | -8%
COc1ccc(C(=O)C2CCCN(C3Cc4ccccc4C3)C2)c(OC)c1 (stereo not given) | 2 | -12% | 3.7% | -48%
NC(=O)c1nsc(C(=O)N(Cc2cccnc2)C(C(=O)NCc2ccc(F)cc2)c2ccc(F)cc2)c1N (stereo not given) | . | 1% | ? | 4%
O=C(CCCn1c(SCc2cc(=O)n3ccccc3n2)nc2ccccc2c1=O)NCC1CCCO1 (stereo not given) | 6 | -1% | -1.4% | 5%
Cc1cc(C(=O)N/N=C/c2cccnc2)n[nH]1 | -3 | 8% | -0.8% | -26%
CN(C)CCCNc1ccc(S(N)(=O)=O)cc1[N+](=O)[O-] | -2 | ? | -1.6% | 0%

Continued.
SMILES | GLA inh pH 4.5 | Rango release inh | Rango-impB inh | miR-21 reporter
O=C(c1ccccc1)N1CCN(C(=O)c2nn3c(C(F)(F)F)cc(-c4ccco4)nc3c2Br)CC1 | . | 1% | ? | 0%
CCOC(=O)c1ccc2[nH]c(C)cc(=O)c2c1 | 5 | 1% | 0.3% | -15%
COc1ccccc1NC(=O)N1CCCC(CNC(=O)c2ccccc2Cl)C1 (stereo not given) | . | 0% | -0.8% | 0%
OCCNC(=S)NC1CCCCC1 | 3 | 10% | 1.3% | -4%
CN(C(=O)CSc1nc2cc(C(=O)O)ccc2c(=O)n1Cc1ccccc1)C1CCS(=O)(=O)C1 (stereo not given) | -2 | -4% | -0.8% | 1%
CCC(=O)Nc1cc(NC(=O)CSc2ncc(-c3ccc(F)cc3)n2Cc2ccco2)ccc1C | -3 | -4% | ? | -38%
CC(=O)C1=C(O)C(=O)N(c2cccnc2)C1c1cccc([N+](=O)[O-])c1 (stereo not given) | 4 | -2% | -0.5% | -3%
COc1ccc(Cc2nnc(NC(=O)CSc3ccc(C)cc3)s2)cc1 | -4 | -14% | ? | -13%
CN(C(=O)COc1nnc(-c2cccs2)c(-c2cccs2)n1)c1ccccc1 | -12 | -22% | 5.4% | -8%
CC(=O)Cc1nsc(NC(=O)c2ccc(Br)o2)n1 | 1 | 14% | 5.0% | -14%
COc1ccc(CNC(=O)C2CCCN(S(=O)(=O)c3cc(C)ccc3OC)C2)cc1 (stereo not given) | 3 | 0% | -1.4% | 22%
NC1=NC(=O)/C(=C\c2cccnc2)S1 | -1 | 0% | 2.1% | 12%
S=C(Nc1ccc(Nc2ccccc2)cc1)NC1CCCCCC1 | -3 | 8% | -1.6% | 27%
COCCN(C(=O)c1cc(-c2ccco2)nc2ccccc12)c1c(N)n(Cc2ccccc2)c(=O)[nH]c1=O | . | -15% | -5.2% | .

Laid out differently: 5 of the compounds above.
structure,GLA inh pH 4.5,Rango release inh,Rango-impB inh,miR-21 reporter
CC(=O)C1=C(O)C(=O)N(c2cccnc2)C1c1cccc([N+](=O)[O-])c1 (stereo not given),4,-2%,-0.5%,-3%
O=C(c1ccccc1)N1CCN(C(=O)c2nn3c(C(F)(F)F)cc(-c4ccco4)nc3c2Br)CC1,.,1%,?,0%
S=C(Nc1ccc(Nc2ccccc2)cc1)NC1CCCCCC1,-3,8%,-1.6%,27%
CC(=O)Cc1nsc(NC(=O)c2ccc(Br)o2)n1,1,14%,5.0%,-14%
COc1ccc(Cc2nnc(NC(=O)CSc3ccc(C)cc3)s2)cc1,-4,-14%,?,-13%

This is a subset. The share of hits here may be higher or lower than overall.
